RecA intein inh: inhibitors of M. tuberculosis RecA intein splicing. hit rate 0.75% among 290,000. cell-free RecA intein splicing, fluorescence. AID 2221. inhibition, %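 (about 9 µM by stock and volumes)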; in the data active = inhibition above about 30%; inconclusive = no clear call, values can overlap the other calls;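 note: 0% = vehicle wells and 100% = reference inhibitor control wells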
Target sequence (P9WHJ3 whole entry, looked up): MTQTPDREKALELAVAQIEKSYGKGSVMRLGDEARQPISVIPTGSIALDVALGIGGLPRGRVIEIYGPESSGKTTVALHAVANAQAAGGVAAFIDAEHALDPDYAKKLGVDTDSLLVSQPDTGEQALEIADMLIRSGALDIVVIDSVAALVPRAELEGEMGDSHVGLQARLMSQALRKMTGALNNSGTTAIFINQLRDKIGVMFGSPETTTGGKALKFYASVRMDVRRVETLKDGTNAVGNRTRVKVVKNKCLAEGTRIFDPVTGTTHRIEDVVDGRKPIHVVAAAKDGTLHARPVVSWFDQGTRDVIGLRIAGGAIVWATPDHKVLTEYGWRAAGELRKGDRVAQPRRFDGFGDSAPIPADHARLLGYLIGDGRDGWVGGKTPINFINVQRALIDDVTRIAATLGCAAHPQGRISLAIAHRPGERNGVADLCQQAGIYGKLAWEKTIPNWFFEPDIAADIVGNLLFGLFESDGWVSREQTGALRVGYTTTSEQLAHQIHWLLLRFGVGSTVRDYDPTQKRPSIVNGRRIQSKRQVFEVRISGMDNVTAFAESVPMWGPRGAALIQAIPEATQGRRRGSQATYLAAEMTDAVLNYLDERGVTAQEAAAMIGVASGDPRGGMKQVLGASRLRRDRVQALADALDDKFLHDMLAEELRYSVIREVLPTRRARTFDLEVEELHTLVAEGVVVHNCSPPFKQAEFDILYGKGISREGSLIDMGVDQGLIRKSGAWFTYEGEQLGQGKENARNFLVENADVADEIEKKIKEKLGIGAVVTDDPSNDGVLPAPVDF
YopH inh: inhibitors of Yersinia enterocolitica YopH tyrosine phosphatase. fluorescence Ex485/Em525. inhibition, %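 (about 10 µM by stock and volumes)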. hit rate 0.16% among 140,000;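 active = inhibition of 50% or more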;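 note: controls were vehicle for no effect and minimum signal wells for full effect; inactives centre near -20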
Mtb bLac sens: beta-lactam sensitization of Mtb H37Rv. M. tuberculosis H37Rv growth with meropenem, percent inhibition; hits of this screen are not shown here. inhibition, % at 25 µM. hit rate 0.27% among 330,000;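 active = about 74% or more and at least 40 points above the plate without the antibiotic, then above 30% in a dose series; inconclusive = first-round hits that could not be retested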;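 note: growth measured after seven days incubation then overnight dye step; 0% = bacteria only wells and 100% = bacteria with antibiotic; twin plates without the antibiotic show which effects depend on it; some results filed as inactive read as strong as hits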
Mtb H37Rv: M. tuberculosis H37Rv growth inhibitors, H37Rv strain (AID 1626). M. tuberculosis H37Rv growth inhibition; higher % means a stronger effect. one-dose inhibition, % at 10 µM; IC50 in µM for titrated hits. hit rate 0.95% among 220,000;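 active = confirmed in a dose series; inconclusive = inhibition above 80% but not taken into the dose series; inactive = below 80% or under 30% at every dose of the series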;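 note: bacteria incubated seven days before Alamar blue readout; 0% = bacteria only wells and 100% = bacteria with antibiotic wells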
Arbovirus anti: blocks arbovirus infection | arbovirus infection cell-based antiviral screen | inhibition, % at 10 µM | hit rate 0.37% among 200,000;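 active = inhibition from about 30%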;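 note: bluetongue infection of BSR cells; cell survival read as ATP light after 72 h; 0% = infected wells without compound and 100% = uninfected wells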
Arbovirus anti repeat: recorded beside Arbovirus anti, whose call it bears; inhibition, %; measured here: 10K subset replicate screen; many hits read low in the repeat;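 first of two repeat runs on a subset; 0% = infected and 100% = uninfected wells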
The depositor's hits bear a star; ? = inconclusive; · = no result given. A portion of the library (hit frequency here may not be typical).

SMILES | RecA intein inh | YopH inh | Mtb bLac sens | Mtb H37Rv | Arbovirus anti | others
Cc1cc(C)cc(NC(=O)C2CCN(c3nc(C)cc(C)n3)CC2)c1 | -1.5 | -15 | -7 | -3% | 3
CCCS(=O)(=O)N1CCN(C2CCC(C)CC2)CC1 (stereo not given) | 2.4 | · | -2 | -5% | 1
Cc1ccc(CN2C(=O)C3CCCN3c3ncccc32)cc1 (stereo not given) | -22 | · | 7 | · | ·
COc1ccc(NS(=O)(=O)c2cccc3nsnc23)cc1OC | -1.2 | -22 | -1 | 1% | 15
CCOC(=O)C1(CCCc2ccccc2)CCN(C(=O)CCc2cnccn2)CC1 | 1.4 | · | -2 | 0% | 4
c1ccc(-c2csc(NC3=NCCCCC3)n2)cc1 | 3.9 | -32 | 0 | 3% | 6
OC(c1nnc(-c2ccccc2)o1)c1cccs1 (stereo not given) | 1.9 | · | -1 | -7% | 3
O=C(CCSc1ccccc1)Nc1ncccn1 | 1.5 | 3 | 1 | -4% | 1
COC(=O)c1ccccc1NC(=O)C1CC(c2ccccc2O)=NO1 (stereo not given) | -1.2 | 28 | 2 | 6% | 14
CCOc1cc(/C=C2\C(=O)N(c3ccc(C(N)=O)cc3)N=C2C)ccc1OC(=O)c1cccs1 | 94* | -51 | 89 | 6% | 3
CCOC(=O)CNC(=O)c1sc(NC(=O)/C=C/c2ccccc2)nc1C | -0.1 | · | -6 | -2% | ·
CC(Sc1ccccc1)C(=O)N(CCC#N)Cc1cccnc1 (stereo not given) | -5.1 | · | -2 | -6% | 2
COc1ccc(C2=NOC(C(=O)Nc3cccnc3)C2)cc1 (stereo not given) | 0.4 | -5 | 3 | -2% | 8
CCOC(=O)/C(=N\Nc1ccccc1Cl)N1CC(C)OC(C)C1 (stereo not given) | -5.2 | · | -6 | 1% | ·
O=C(NC1CC1)C1=C[C@@H](c2ccc3c(c2)OCO3)C[C@@H](OCCCCO)O1 | -2.8 | · | -8 | -14% | ·
CCOC(=O)C1CCN(C(=O)c2ccccc2NS(=O)(=O)c2cc(C)ccc2C)CC1 | -5.0 | -27 | -4 | -9% | 7
CCCCNc1c(-c2ccc(-c3ccc(C(C)=O)cc3)c(OC)c2)nc2cnccn12 | -77 | · | 99 | · | ·
COc1ccc(N2C(=O)CC(N3CCN(C4CCc5ccccc5C4)CC3)C2=O)cc1 (stereo not given) | -1.3 | 1 | 2 | -5% | 7
COc1cc(NC(=O)CCc2nnc3ccc(N4CCOCC4)nn23)cc(OC)c1OC | -6.2 | · | 2 | · | ·
CCN(Cc1ccc(OC)c(F)c1)C(=O)C1CCCO1 (stereo not given) | 0.2 | · | 3 | · | ·
CCc1noc(C)c1C(=O)N1CCN(S(=O)(=O)c2cc(C)ccc2C)CC1 | -1.4 | · | ? | · | ·
COc1cccc(C(c2sc3nc(C)nn3c2O)N2CCN(c3ccccc3F)CC2)c1 (stereo not given) | -0.6 | -19 | -3 | 0% | 3
COc1ncccc1C(=O)N1CCCC(N2CCN(c3ccc(F)cc3)CC2)C1 (stereo not given) | 0.1 | · | -1 | · | ·
Cc1ccc(C23CC4CC(CC(C(=O)NN)(C4)C2)C3)cc1 | 6.1 | · | -6 | · | ·
CCOc1ccc(N2C(=O)CC(NC3CCCCNC3=O)C2=O)cc1 (stereo not given) | 1.5 | -5 | 6 | -5% | 3
COC(=O)c1ccc(/C=N/Nc2nc(-c3ccc(Cl)cc3Cl)cs2)cc1 | · | · | · | 3% | 1
O=C1C=C(c2ccccc2)CC(c2cccs2)C1n1cnc([N+](=O)[O-])c1 (stereo not given) | 3.7 | -19 | 4 | 3% | 7
OCCC1CN(Cc2nc(-c3ccccc3)cs2)CCN1CCc1ccccc1 (stereo not given) | -0.2 | · | -3 | 11% | 8
Cn1nnnc1SCC(=O)Nc1nc2ccccc2s1 | -3.8 | · | 0 | 3% | 0
Cc1cc(C)nc(N2CCCC(C(=O)Nc3ccc(F)cc3)C2)n1 (stereo not given) | 0.3 | · | 3 | · | ·
O=C(c1cccnc1)N1CCc2ccccc21 | 4.4 | -27 | 1 | 0% | -2
COC(=O)c1sc(N2C(=O)C(=O)/C(=C(/O)c3ccccc3)C2c2ccco2)nc1C (stereo not given) | 1.3 | -10 | 0 | 23% | 8
CN(CC(=O)Nc1cccc(F)c1)C(=O)c1cccc(S(=O)(=O)N2CC3(C)CC2CC(C)(C)C3)c1 (stereo not given) | -0.8 | · | -9 | · | ·
O=C(NCCC1CCCCN1S(=O)(=O)c1ccccc1)C(=O)NCc1ccco1 (stereo not given) | 0.6 | · | -4 | · | ·
Cc1ccc(CCNC(=O)CNC(=O)c2cccs2)cc1 | -5.5 | · | -10 | 0% | 14
COc1cccc(OC)c1C(=O)NC(=O)Oc1c(F)cccc1F | 1.9 | · | 0 | · | ·
COc1ccc(NC(=O)c2cc3ccccc3o/c2=N\NS(=O)(=O)c2ccc(C)cc2)cc1 | -2.9 | · | 9 | · | ·
Cc1c(C(=O)N2CCCCCC2)c(S(=O)(=O)NCc2ccccc2Cl)c(C)n1C | 0.5 | · | -1 | · | ·
C#CCOCCOCCOCCNc1nc(N2CCOCC2)nc(N2CCN(C(=O)Cn3cc(CC(C)O)nn3)CC2)n1 (stereo not given) | 1.2 | -24 | -6 | -4% | -6
O=C(NCCn1c(C(F)(F)F)nc2ccccc21)[C@H]1CCCN1c1nc(CN2CCCCC2)cs1 | -1.7 | · | -9 | · | ·
NC(=O)c1ccc(NC(=O)COC(=O)c2cc([N+](=O)[O-])ccc2N2CCOCC2)cc1 | -0.7 | · | -2 | · | ·
O=C(c1ccc(F)cc1)N1CCC(C(=O)N2CCN(S(=O)(=O)c3ccccc3Br)CC2)CC1 | 0.3 | · | -1 | · | ·
Cc1ccc(NC(=O)CN(C)CC(=O)Nc2cccc(F)c2)cc1S(=O)(=O)N1CCCCCC1 | 8.6 | · | 7 | 6% | -22
C=CCn1c(SCC(=O)NC2CCCCC2)nnc1C(C)NC(=O)c1cccs1 (stereo not given) | -3.5 | -20 | -6 | 5% | 0
Cc1nc(C)n(C(C)CNC(=O)c2ccco2)n1 (stereo not given) | 0.6 | · | -6 | · | ·
COc1ccc(CCNC(=S)Nc2cc(C)ccc2C)cc1 | -1.9 | -4 | -5 | 33% | 8
CCC(C(=O)OCC(=O)c1ccc2c(c1)NC(=O)CO2)c1ccccc1 (stereo not given) | 3.9 | · | 5 | 5% | 4
Oc1ccc(N2CCN(C(c3cccs3)c3nnnn3CCc3ccccc3)CC2)cc1 (stereo not given) | 0.2 | -39 | 0 | 4% | -27
COc1ccccc1CCNC(=O)CCn1c(=O)oc2ccccc21 | -5.0 | -44 | 6 | -2% | 1
CC(C)c1ccc(/C=C/C(=O)NNC(=O)c2cccnc2)cc1 | · | -32 | 41 | 8% | -11
Cc1ccc(-c2ccnc3nc(-n4cccc4)nn23)o1 | 2.5 | · | -4 | -5% | -1
Cc1ccc(N2CN=c3s/c(=C\c4ccccn4)c(=O)n3C2)cc1 | -4.0 | 16 | 13 | -8% | 2 | Arbovirus anti repeat=16
COc1ccc(NC(=O)CSc2ccc(NC(C)=O)cc2)cc1S(=O)(=O)N1CCCCC1 | 2.9 | -23 | 1 | -7% | 3
Cc1ccc(/C=C/C(=O)c2ccccc(=O)c2O)c(C)c1 | 21 | -34 | 36 | 45% | -23
Cc1ccc(S(=O)(=O)CCC(=O)N2CCc3ccccc32)cc1 | -1.0 | -12 | -1 | · | -3
CC1(C)C2CCC1(CS(=O)(=O)N1CCN(c3ccccc3F)CC1)C(=O)C2 (stereo not given) | 0.1 | · | 0 | · | ·
COc1ccc(Br)cc1CN1CCC(N2CCCC2)CC1 | 0.8 | · | -27 | · | ·
O=S(=O)(c1ccccc1)[C@@]1(c2ccc(Br)cc2)C[C@@H]2ON=C(c3cccc(Br)c3)[C@@H]2C1 | 2.3 | · | -18 | · | ·
CC(=O)Nc1ccc2nc(SCC(=O)O)sc2c1 | -0.7 | -11 | -14 | -12% | 5
CC(C)Oc1ccc(C2CC(=O)N(C)C2=O)cc1 (stereo not given) | -3.2 | · | -7 | · | ·

Quoted at random: 5 entries already listed, in no set order.
SMILES | RecA intein inh | YopH inh | Mtb bLac sens | Mtb H37Rv | Arbovirus anti | others
Cc1ccc(/C=C/C(=O)c2ccccc(=O)c2O)c(C)c1 | 21 | -34 | 36 | 45% | -23
CC(C)Oc1ccc(C2CC(=O)N(C)C2=O)cc1 (stereo not given) | -3.2 | · | -7 | · | ·
COc1ccc(CCNC(=S)Nc2cc(C)ccc2C)cc1 | -1.9 | -4 | -5 | 33% | 8
CC1(C)C2CCC1(CS(=O)(=O)N1CCN(c3ccccc3F)CC1)C(=O)C2 (stereo not given) | 0.1 | · | 0 | · | ·
O=S(=O)(c1ccccc1)[C@@]1(c2ccc(Br)cc2)C[C@@H]2ON=C(c3cccc(Br)c3)[C@@H]2C1 | 2.3 | · | -18 | · | ·

Next records
SMILES | RecA intein inh | YopH inh | Mtb bLac sens | Mtb H37Rv | Arbovirus anti | others
COC(=O)c1ccc(CNC(=O)COC(=O)C2CC3C=CC2C3)cc1 (stereo not given) | -6.2 | · | 1 | -4% | 12
COc1cc2[nH]c(=S)nc(NC3CCCC3)c2cc1OC | · | · | · | 1% | 16
CNc1ccccc1C(=O)OCC(=O)c1ccc(F)cc1 | 0.2 | · | 1 | 4% | 4
COc1ccc(-c2csc(N=C(N)N)n2)cc1 | -1.7 | · | -10 | 1% | -2
Cc1ccc(Cl)cc1NC(=O)NCCN1CCCCC1 | -0.4 | · | 1 | · | ·
COc1cc(OC)cc(C(=O)NNS(=O)(=O)c2ccc(F)cc2)c1 | -0.3 | · | 5 | · | ·
Cc1ccc(S(=O)(=O)c2nc(S(C)(=O)=O)sc2N2CCC(C(N)=O)CC2)cc1 | 7.0 | · | -9 | · | ·
C/C(=C\C(=O)c1ccncc1)Nc1ccccc1O | -4.4 | -41 | 99 | <0.2µM* | -14
COc1c(C)cc(C(=O)C2CCCN(Cc3cnc(N4CCOCC4)s3)C2)cc1C (stereo not given) | -2.2 | · | -12 | · | 11
O=C(NC(=S)Nc1cccnc1)c1cccs1 | -0.3 | · | 5 | -4% | -1
Cc1cccc(/C=N/N2CCN(c3ccccc3)CC2)c1 | 0.4 | -4 | · | 0% | -13
CC(=O)NC(CC(=O)Nc1cccc(S(=O)(=O)N2CCCC2)c1)c1ccccc1 (stereo not given) | -1.4 | · | 3 | · | ·
CC1c2cc3c(cc2CCN1CC(=O)Nc1ccc(S(=O)(=O)N2CCCC2)cc1)OCCCO3 (stereo not given) | 2.3 | · | 0 | · | ·
C/C=C/C(=O)OCC(=O)Nc1ccccc1Br | 1.5 | · | -12 | -3% | -3
COc1ccccc1OCc1cc(C(=O)N2CCN(C)C(c3ccccc3)C2)no1 (stereo not given) | -1.5 | · | 4 | · | ·

Quoted from the entries so far, four compounds:
SMILES | RecA intein inh | YopH inh | Mtb bLac sens | Mtb H37Rv | Arbovirus anti | others
CNc1ccccc1C(=O)OCC(=O)c1ccc(F)cc1 | 0.2 | · | 1 | 4% | 4
COc1ccc(-c2csc(N=C(N)N)n2)cc1 | -1.7 | · | -10 | 1% | -2
Cc1ccc(Cl)cc1NC(=O)NCCN1CCCCC1 | -0.4 | · | 1 | · | ·
COc1cc(OC)cc(C(=O)NNS(=O)(=O)c2ccc(F)cc2)c1 | -0.3 | · | 5 | · | ·

Carrying on:
SMILES | RecA intein inh | YopH inh | Mtb bLac sens | Mtb H37Rv | Arbovirus anti | others
Cc1cc(=O)oc2c3c(cc(OCC(=O)N4CCC[C@H]4C(=O)O)c12)OC(C)(C)CC3 | -3.6 | · | -2 | · | ·
Cc1ccc(S(=O)(=O)NNC(=O)C(O)(c2ccccc2C)c2ccccc2C)cc1 | 4.3 | -25 | -3 | -2% | 12
O=C(NC1CCCC1)C(c1ccccc1)N(Cc1cccnc1)C(=O)Cc1cccs1 (stereo not given) | 0.2 | · | 0 | -7% | 3
CC(C)N1CC(C(=O)Nc2cccc([N+](=O)[O-])c2)CC1=O (stereo not given) | -4.1 | · | -3 | · | ·
CCOc1ccccc1NC(=O)Cn1nnc(C(=O)NCCc2ccc(OC)c(OC)c2)c1N | -0.9 | · | 9 | 0% | 10
COc1cc(NC(=O)C(C)C)ccc1NC(=O)c1cc2ccccc2o1 | 1.8 | · | 4 | · | ·
O=C(/C=N/O)NCC1CCNCC1 | 1.3 | -34 | -11 | 2% | 6
C/C(CC(=O)Nc1ccc(OCc2ccccc2)cc1)=N\NC(=O)C(=O)Nc1ccc(C)c(Cl)c1 | -2.5 | -22 | 93 | ? | -15
COc1ccc(C(=O)NNC(=O)CCC(=O)NNC(=O)c2ccc(OC)cc2)cc1 | 0.9 | · | 5 | · | ·
CN(C)CC/C=C1/c2cc(F)ccc2CSc2ccc(F)cc21 | 0.6 | -15 | 1 | 3% | -26
